# WNV NS2B-NS3 inh – inhibitors of West Nile virus NS2B-NS3 protease. AID 577. 65,000 compounds, 0.18% hits. WNV NS2B-NS3 protease, fluorogenic substrate Ex360/Em465; stronger effect = lower value. z-score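 (tested at a level between 10 and 100 µM)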;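 active means z-score at -3 or under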;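 further: score is relative to mean and spread of the compound wells of a plate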
# Target sequence (P06935 1371-1501 limits assumed): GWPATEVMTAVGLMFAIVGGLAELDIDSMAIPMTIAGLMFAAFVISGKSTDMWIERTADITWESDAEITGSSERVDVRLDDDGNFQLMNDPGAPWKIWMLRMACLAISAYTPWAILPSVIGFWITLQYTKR
# Target sequence (P06935 1502-1679 limits assumed): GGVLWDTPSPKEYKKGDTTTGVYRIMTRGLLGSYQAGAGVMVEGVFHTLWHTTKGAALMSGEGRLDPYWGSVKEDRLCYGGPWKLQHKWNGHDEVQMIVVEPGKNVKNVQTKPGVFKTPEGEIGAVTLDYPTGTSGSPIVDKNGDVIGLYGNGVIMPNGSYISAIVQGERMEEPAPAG
# Hsc70 ATP site – small molecules displacing fluorescent ligand from Hsc70 – biochemical, fluorescence polarization, primary screen (AID 568); Hsc70 fluorescence polarization, probe displacement; higher % means a stronger effect; strong numbers were not always called active; one-dose displacement, % at 20 µM; IC50 in µM for titrated hits; 83,000 tested, under 10 active;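 active means displacement above 50% without optical interference and an IC50 on retest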;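 further: ATPase domain with a fluorescein-tagged ATP probe; 0% = vehicle and 100% = excess ADP; read after one hour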
# MT1-MMP reporter – inhibitors of MT1-MMP promoter transcription, cell-based, luciferase reporter, luminescence (AID 618); MT1-MMP promoter luciferase reporter cells, luminescence; 87,000 compounds, 0.62% hits; calls from a first round at 10 µM; hits with a dose series show EC50 in µM;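 active means over half of the reporter light lost at 10 µM or EC50 under 50 µM; inactive means the rest and hits that failed the dose series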;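 further: actives suppress MT1-MMP promoter-driven transcription so potencies describe inhibitors; HT1080 fibrosarcoma cells; overnight exposure; toxic or luciferase-blocking compounds were not removed from the actives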
# Active calls of the source: *; i = inactive; . = no result given; + = active, no number. These rows are one share of the data; rates above refer to the full screens.
mol | Hsc70 ATP site | WNV NS2B-NS3 inh | MT1-MMP reporter
CCOC(=O)C(Cc1ccccc1)NC(=O)Cn1nnc(-c2ccccc2)n1 (stereo unspecified) | 2.8% | -0.67 | i
CCCCOCCCNC1=NCCCCC1 | 4.7% | 0.05 | i
COc1ccc(N=c2oc3cc(O)ccc3cc2C(=O)NCC2CCCO2)cc1 (stereo unspecified) | 7.0% | -1.1 | i
C=C1[C@@H](C)C2[C@H](Cc3ccccc3)NC(=O)[C@]23OC(=O)CC[C@H](O)CCC[C@H](C)C/C=C/[C@H]3[C@@H]1O (stereo partly specified) | 3.0% | -0.05 | i
Cc1ccccc1-n1c(SCC(=O)N2CCN(c3ccccc3)CC2)nnc1-c1ccncc1 | 1.6% | -0.17 | i
O=C(Cn1nc(Cc2cccnc2)c2ccccc2c1=O)N1CCN(C(=O)c2ccco2)CC1 | 0.4% | 1.2 | i
O=C(CSCC(=O)N1CCOCC1)Nc1nc(-c2ccc3c(c2)OCO3)cs1 | -1.5% | 0.96 | i
Nn1c(COc2ccccc2)nnc1SCC(=O)O | -1.7% | 0.16 | i
O=C(O)C1CC=CCC1C(=O)Nc1cccc(Cl)c1Cl (stereo unspecified) | 4.8% | -1.6 | i
CCCn1c2ccccc2c2nnc(SCC(=O)OCC)nc21 | -2.7% | 0.96 | i
CSc1ccc(-c2nnn(Cc3ccccn3)n2)cc1 | -1.7% | -0.65 | i
CCc1nc2ccccc2n(CCOCCn2c(=O)c(CC)nc3ccccc32)c1=O | 0.5% | 0.47 | i
Cc1ccc2c(c1)cc(CN(Cc1ccc3c(c1)OCO3)C(=O)c1ccccc1)c1nnnn12 | -1.8% | . | i
Cn1c(N2CCC(C(N)=O)CC2)nc2c1c(=O)n(Cc1cccc(Br)c1)c(=O)n2C | 1.3% | 1 | i
CC1CCN(S(=O)(=O)c2csc(C(=O)Nc3ccccc3)c2)CC1 | 10% | . | i
CCn1ncc(Cl)c1C(=O)Nc1cc(Cl)ccc1Cl | -1.6% | 0.59 | i
O=C(c1ccccc1-c1ccccc1)N1CCCC1 | -2.3% | 1.1 | i
CCOC(=O)c1ccc(NC(=O)NCc2ccncc2)cc1 | -1.9% | -0.21 | i
COc1ccc(OC)c(S(=O)(=O)N(C)CC(=O)Nc2cc(Cl)ccc2OC)c1 | -2.3% | 0.4 | i
CC1CCCCC1NC(=O)CN1CCC(O)(c2ccc(F)cc2)CC1 (stereo unspecified) | 1.9% | 0.29 | i
CCOc1cc(C)c(Cl)cc1S(=O)(=O)N1CCCC1 | 1.7% | -0.15 | i
CSc1c(CC(=O)NCCO)n(C)c2ccccc12 | -2.5% | -0.76 | i
COC(=O)c1ccc2c(=O)n(Cc3ccc4c(c3)OCO4)c(SCC(=O)N3CCCC3)nc2c1 | -1.2% | 1.1 | i
Cc1n[nH]c(C)c1S(=O)(=O)N1CCCC(C(=O)N2CCN(c3ccc(Cl)cc3)CC2)C1 (stereo unspecified) | -4.3% | -0.11 | i
Cc1cccc(C)c1NC(=O)CCCN1CC(C)OC(C)C1 (stereo unspecified) | 1.6% | . | i
COc1ccccc1NS(=O)(=O)c1ccc(NC(=O)CCNC(=O)c2ccco2)cc1 | -3.7% | 1.5 | i
O=C1COc2ccc(C(=O)COC(=O)c3ccc4ccccc4n3)cc2N1 | -5.8% | 1.5 | i
CCOC(=O)C1C(=O)C(C(C)=O)C(=O)CC1CC(C)SCC (stereo unspecified) | -4.3% | . | i
CNC(=O)CSc1nc(-c2ccccc2)c(-c2ccccc2)[nH]1 | -4.3% | . | i
Cc1nn(C)c(C)c1S(=O)(=O)N1CCC(C(=O)NC(C)c2ccccc2)CC1 (stereo unspecified) | 3.4% | -0.59 | i
O=C(c1ccc(=O)oc1)N1CCN(C(c2ccccc2)c2ccccc2)CC1 | 2.5% | -0.59 | i
Cc1ccc(S(=O)(=O)NCC2CCC(C(=O)NCc3ccco3)CC2)cc1 (stereo unspecified) | -1.6% | 0.75 | i

# Full records, looked up by structure. Values in the order: Hsc70 ATP site	WNV NS2B-NS3 inh	MT1-MMP reporter
# Record of `CCn1ncc(Cl)c1C(=O)Nc1cc(Cl)ccc1Cl` → -1.6%	0.59	i
# Record of `CCOc1cc(C)c(Cl)cc1S(=O)(=O)N1CCCC1` → 1.7%	-0.15	i
# Record of `Cc1ccccc1-n1c(SCC(=O)N2CCN(c3ccccc3)CC2)nnc1-c1ccncc1` → 1.6%	-0.17	i
# Record of `O=C(Cn1nc(Cc2cccnc2)c2ccccc2c1=O)N1CCN(C(=O)c2ccco2)CC1` → 0.4%	1.2	i
# Record of `COc1ccc(OC)c(S(=O)(=O)N(C)CC(=O)Nc2cc(Cl)ccc2OC)c1` → -2.3%	0.4	i

# Other results
mol | Hsc70 ATP site | WNV NS2B-NS3 inh | MT1-MMP reporter
O=S(=O)(NC1CCN(Cc2ccccc2)CC1)c1cccc2cccnc12 | 5.8% | 0.95 | i
Cc1cccc(COc2ccc(/C(O)=C3\C(=O)C(=O)N(CCN(C)C)C3c3ccncc3)cc2)c1 (stereo unspecified) | -2.8% | -0.34 | i
O=C(NCc1ccco1)C(c1ccncc1)N(CCC1=CCCCC1)C(=O)Cn1nnc2ccccc21 (stereo unspecified) | 4.3% | 0.24 | i
COC(=O)c1[nH]c2cccc(OC)c2c1NC(=O)C(C)N1CCC(C)CC1 (stereo unspecified) | 6.5% | . | i
COC(=O)CN(c1nc(C)c(Cl)c(OC)n1)S(=O)(=O)c1ccc(C)cc1 | -3.3% | -0.65 | i
CCOC(=O)C1=C(c2ccccc2)N=C2SCC(=O)N2C1c1ccc2c(c1)OCO2 (stereo unspecified) | -9.0% | 1.5 | i
CCOC(=O)c1[nH]c(C)c(C(=O)NCCc2ccc(OC)cc2)c1C | 3.8% | 0.31 | i
CCOC(=O)c1ccccc1NC(=O)c1ccccc1N(C)S(C)(=O)=O | 6.9% | 0.23 | i
Clc1ccc(CSCCc2ccncc2)cc1 | 0.1% | . | i
Cc1cc(C)n(C2CC(=O)N(c3ccccc3)C2=O)n1 (stereo unspecified) | -4.4% | . | i
CCOC(=O)c1c(C)oc2c1c(/C=N/c1ccccn1)c(O)c1ccccc12 | 96% | 0.52 | i
CCOC(=O)N1CCN(c2ncnc3c2cnn3-c2ccc(Cl)cc2)CC1 | -5.7% | -0.03 | i
COc1ccc(CCn2c(SCC(=O)Nc3cc(C)on3)nc3ccsc3c2=O)cc1OC | -8.7% | -0.34 | i
Cc1ccc(NC(=O)CN(C)C(=O)CCCN2C(=O)c3ccccc3C2=O)cc1 | -4.2% | -0.19 | i
O=C(CN1CCOc2ccccc21)NCc1ccc(F)cc1 | 1.0% | 0.66 | i
CCOC(=O)c1cc(-c2nnc(-c3ccc(Oc4ccccc4)cc3)o2)c(C)nc1C | -2.9% | -0.27 | i
O=C(COC(=O)c1cccnc1Cl)c1cccc(Cl)c1 | -2.6% | . | i
COc1ccc(S(=O)(=O)NC(CC(=O)NCc2ccco2)c2ccco2)cc1 (stereo unspecified) | -1.1% | -0.84 | i
Brc1cnn(-c2nc(N3CCOCC3)nc(N3CCOCC3)n2)c1 | -7.3% | -0.39 | i
COc1ccc(CNc2ccccc2)cc1Br | 5.0% | . | i
CCc1cc(C(=O)NNC(=S)Nc2cccc(C)c2)cs1 | 0.5% | . | i
CC1C(=O)CCN(C(C)C)C1C (stereo unspecified) | -0.9% | . | i
COc1cccc(-n2cc3c(=O)n(C)c(=O)n(C)c3c2)c1 | 0.3% | -0.38 | i
Cc1ccc(S(=O)(=O)N(C)c2ccc(C(=O)O)cc2)cc1 | 0.0% | -0.86 | i
Cc1cc(C(=O)Nc2cccc3ncccc23)no1 | -3.4% | 0.76 | i
COc1ccc(Cn2nnnc2C(c2ccc(F)cc2)N2CCN(C3CCCC3)CC2)cc1 (stereo unspecified) | -14% | -0.58 | i
COc1cccc(-c2nc(CS(=O)CC(=O)NCc3ccc4c(c3)OCO4)c(C)o2)c1 (stereo unspecified) | 2.0% | -0.42 | i
CC1(C)NC(=O)N(CC(O)CNC23CC4CC(CC(C4)C2)C3)C1=O (stereo unspecified) | 3.6% | -0.41 | i
C=CCOc1ccc(/C(O)=C2\C(=O)C(=O)N(CCOC)C2c2cccnc2)cc1 (stereo unspecified) | 0.9% | 0.35 | i
Cc1ccccc1NC(=S)NN1CCN(C)CC1 | -3.1% | . | i
O=C(Oc1ccc2c(c1)OCC2=O)c1ccccc1 | 4.2% | -1.2 | i
Cc1occc1-c1nnc(SCC(=O)NCc2cccs2)n1CC1CCCO1 (stereo unspecified) | 3.9% | -0.83 | i
OC1(CN2CCOCC2)C2CN3CCN(C2)CC1(c1ccccc1)C3 (stereo unspecified) | -6.0% | -0.76 | i
CCOc1cccc(NC(=O)C2CCCN(S(=O)(=O)c3ccc(-n4cnnn4)cc3)C2)c1 (stereo unspecified) | -6.2% | -0.21 | i
C[C@H](NC(=O)OC(C)(C)C)C(=O)NCC1CCC(C(=O)O)CC1 (stereo partly specified) | 1.2% | -0.19 | i
CN(C)c1nc(Oc2ccc(=O)[nH]n2)nc(N2CCOCC2)n1 | -2.6% | . | i
CCC(C)NC(=O)c1c(N)n(/N=C/c2ccccn2)c2nc3ccccc3nc12 (stereo unspecified) | -7.7% | -0.3 | i
Cc1c(Cl)ccc2c1NC(=O)[C@]21N[C@@H](Cc2ccccc2)[C@H]2C(=O)N(c3ccc(F)cc3)C(=O)[C@H]21 | 1.6% | . | i
COc1cccc(C(=O)N2CCN(S(=O)(=O)Cc3ccccc3)CC2)c1 | -4.2% | -1 | i
O=C(Cn1cnc2c(cnn2-c2ccccc2)c1=O)NCc1ccccc1 | -3.1% | -1.1 | i
CC(=O)[C@H]1CC[C@H]2[C@@H]3CCC4=CC(=O)CC[C@]4(C)[C@H]3CC[C@]12C | -1.9% | -0.1 | i
CCC(=O)Nc1ccc2nc(C3CC3)n(Cc3ccccc3)c(=O)c2c1 | 5.0% | -0.94 | i
CC(C)CNC(=O)CN(C1CCCCC1)S(C)(=O)=O | 2.0% | 0.2 | i
Cc1nc2ncnn2c(N2CCN(c3cccc(C(F)(F)F)c3)CC2)c1C | -4.8% | 0.39 | i
O=C(C(Cc1ccccc1)N1C(=O)c2ccccc2C1=O)N1CCc2ccccc21 (stereo unspecified) | 0.4% | . | i
N#CC1=C(c2ccccc2)N=P(N2CCOCC2)(N2CCOCC2)N=C1N1CCOCC1 | -1.7% | 0.05 | i
O=C(COC(=O)c1n[nH]c2ccccc12)NC(=O)NC12CC3CC(CC(C3)C1)C2 | -6.2% | 0.08 | i
CS(=O)(=O)N1CCN(c2ccc(NC(=O)c3cccnc3Cl)cc2)CC1 | -0.3% | . | i
O=C1C2C3C=CC(C3)C2C(=O)N1c1ccc2c(c1)CCC2 (stereo unspecified) | 1.8% | -0.35 | i
CCN(CC)S(=O)(=O)c1csc(C(=O)Nc2ccccn2)c1 | 4.9% | -0.07 | i
CC(C(=O)O)N1C(=O)c2ccccc2C1=O (stereo unspecified) | 2.4% | . | i
Cc1cc(N)n(-c2nc(-c3cccnc3)nc3ccccc23)n1 | 2.0% | 1.6 | i
COc1ccc(-c2cc(=O)oc3cc(OCc4nn[nH]n4)ccc23)cc1 | -3.3% | -1.1 | i
Cc1nc2c(F)c(F)c(C(F)(F)F)c(F)c2[nH]1 | -3.0% | 1.5 | i
O=C(Nc1nc(-c2ccc3c(c2)OCCO3)cs1)c1ccc(S(=O)(=O)N2CCCCC2)cc1 | 2.8% | 0.38 | i
Cc1ccc(S(=O)(=O)Nc2cccc3ncccc23)s1 | -5.6% | 4.1 | +

# Continuation.
mol | Hsc70 ATP site | WNV NS2B-NS3 inh | MT1-MMP reporter
O=C(CSc1nc2ncccc2[nH]1)c1ccc(F)cc1 | 3.5% | -1.3 | i
O=C(CSc1nc2c(c(=O)n1-c1ccc(F)cc1)SCC2)NCc1ccco1 | -7.2% | 0.42 | i
FC(F)(F)c1cc(-c2ccccc2)nc(NCc2cccnc2)n1 | 4.1% | . | i
O=C(NCCCn1ccnc1)Nc1cccc2ccccc12 | 0.7% | . | i
CC1CCCCC1NS(=O)(=O)c1ccc(S(=O)(=O)N2CCCC2)cc1 (stereo unspecified) | 7.8% | 1.1 | i
CCCCCCc1cc2cc(C(=O)NCc3ccccc3)c(=N)oc2cc1O | -15% | . | i
CSc1nc(C)cc(OCC#N)n1 | 0.8% | 0.84 | i
Cc1onc(-c2ccccc2)c1C(=O)NC(CC(=O)O)c1ccc(OC(C)C)cc1 (stereo unspecified) | -2.0% | -1.3 | i

# Taken from the listing (2 entries):
mol | Hsc70 ATP site | WNV NS2B-NS3 inh | MT1-MMP reporter
CSc1nc(C)cc(OCC#N)n1 | 0.8% | 0.84 | i
Cc1onc(-c2ccccc2)c1C(=O)NC(CC(=O)O)c1ccc(OC(C)C)cc1 (stereo unspecified) | -2.0% | -1.3 | i

# More compounds follow:
mol | Hsc70 ATP site | WNV NS2B-NS3 inh | MT1-MMP reporter
COC(=O)CSc1nnc(C)n1-c1cccc(C#N)c1 | 0.9% | 0.63 | i
O=c1nc(N2CCOCC2)ccn1-c1nc(-c2ccccc2)oc1-c1ccccc1 | -2.6% | 0.17 | i
COc1ccc(N2CC(C(=O)Nc3ncccc3C)CC2=O)cc1 (stereo unspecified) | -2.9% | 1.9 | i
S=C(NN=C1CCCCCC1)Nc1ccc(Cl)cc1 | 3.4% | . | i
